NS1 function inh: blocks influenza NS1 protein function. Potency, µM (doses to about 46.1 µM), for inactives: top-dose activity, positive = more growth. S. cerevisiae slowed by influenza A NS1, growth recovery by OD600. 0.4% of 270,000 active; note: actives are rising curves; nearly all actives have a fitted effect of over 50% in size
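OD600 was taken as the measure of yeast growth restored by compound in an NS1-expressing S. cerevisiae strain. Cells had been washed out of glucose medium and diluted 1:100 into galactose -URA medium, pH 6.0.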
RE007 growth inh: less growth of the S. pombe RE007 Vpr strain; S. pombe RE007 Vpr strain, BacTiter-Glo ATP luminescence, 24 h; control for the full effect not named in the record; Potency, µM (doses to about 92.2 µM), for the others: at the highest dose activity change, negative = less growth; 0.21% of 360,000 active; active = well fitted falling curve with a large enough effect; inconclusive = small, poorly fitted or top-dose-only effect; inactive = no such curve, though single readings can be large or run the other way;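 note: % is set by controls: 0 for no effect and ±100 for the full control effect; nearly all actives have a fitted effect of over 50% in size; the assay follows cell death caused by Vpr and the record does not say whether a fall means rescue or toxicity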
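Fission yeast RE007 carrying one integrated HIV-1 vpr copy, seeded at OD 0.01 in PMG+AL medium with 23 nL pinned compound. Grown 24 h at 30 degrees; viability read by BacTiter-Glo luminescence after 5 min.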
SARS PLP yeast: blocks SARS-CoV papain-like protease in a yeast assay. 0.19% of 330,000 active. S. cerevisiae expressing SARS-CoV PLpro, growth rescue; control for the full effect not named in the record. Potency, µM (titrated, usually from 32.9 µM), for inactives: at the highest dose activity, positive = growth rescue; note: 0% is about no effect; nearly all actives have a fitted effect of over 55% in size; growth read by luminescence after 48 h
Cruzain inh noDet: inhibitors of Trypanosoma cruzi cruzain without detergent. AID 1476. P25779. purified cruzain, Z-FR-AMC fluorescence, no detergent. Potency, µM, for the others: max response, negative = inhibition, most hits filed as inhibitors. 2.3% of 200,000 active; active = well fitted curve in the direction sought with a large enough effect; inconclusive = small, poorly fitted or top-dose-only effect, or another doubt; inactive = no such curve, though single readings can be large; an effect the other way counts as inactive or inconclusive;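 note: plate controls were enzyme without inhibitor for no effect and buffer without enzyme for full effect; nearly all actives have a fitted effect of over 40% in size; top concentration of the series not given in the record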
Target sequence (P25779 123-467 limits assumed): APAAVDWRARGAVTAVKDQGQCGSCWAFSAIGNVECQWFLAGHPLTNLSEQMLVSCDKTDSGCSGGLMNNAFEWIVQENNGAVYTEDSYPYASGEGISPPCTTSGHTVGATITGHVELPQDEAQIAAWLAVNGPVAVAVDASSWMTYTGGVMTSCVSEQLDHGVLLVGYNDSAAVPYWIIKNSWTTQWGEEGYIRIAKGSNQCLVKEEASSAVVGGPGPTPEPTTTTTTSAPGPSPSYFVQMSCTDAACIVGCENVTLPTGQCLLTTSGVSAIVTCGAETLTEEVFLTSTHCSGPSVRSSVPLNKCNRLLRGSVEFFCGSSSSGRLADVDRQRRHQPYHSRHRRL
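Detergent-free condition (0.00005% Triton X-100) in acetate buffer pH 5.5 with DTT. 1.5 nM enzyme and compound were pre-mixed 15 min, then 2 uM Z-FR-AMC substrate added; reaction progress from fluorescence change between first and third reads (60 s).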
Cruzain inh Det: blocks cruzain activity in presence of Triton detergent. P25779. purified cruzain, Z-FR-AMC fluorescence, 0.01% Triton. Potency, µM, without a hit: max response, negative = inhibition, most hits filed as inhibitors. 0.43% of 200,000 active; active = well fitted curve in the direction sought with a large enough effect; inconclusive = small, poorly fitted or top-dose-only effect, or another doubt; inactive = no such curve, though single readings can be large; an effect the other way counts as inactive or inconclusive;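 note: plate controls were neutral wells for no effect and buffer without enzyme for full effect; nearly all actives have a fitted effect of over 40% in size; top concentration of the series not given in the record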
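Cysteine protease activity tested under reducing, mildly acidic conditions (100 mM sodium acetate pH 5.5, 5 mM DTT) plus 0.01% Triton X-100. Cruzain 1.5 nM; substrate Z-FR-AMC 2 uM; 15 min compound preincubation at room temperature.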
Marburg entry inh: Marburg virus entry inhibition; Marburg virus pseudotyped entry inhibition, cell reporter; control for the full effect not named in the record; about a third of the inactives were read at about 46 µM; 1.8% of 300,000 active; AID 540276; Potency, µM (titrated, usually from 37.8 µM), inactives show at the top dose activity change, negative = inhibition, hits mostly inhibitors; active = well fitted inhibition curve with a large enough effect; inconclusive = small, poorly fitted or top-dose-only effect, or effect the other way; inactive = flat fitted curve, though single readings scatter; tested in HEK293 cells; about a fifth of its hits are not listed in these tables; note: % is set by controls: 0 for no effect and ±100 for the full control effect; luciferase read-out
Lassa entry inh: blocks Lassa virus binding to or entry into cells. Lassa virus pseudotype entry inhibition, cell reporter; control for the full effect not named in the record. Potency, µM (doses to about 37.9 µM), for inactives: top-dose activity change, negative = inhibition, hits mostly inhibitors. 1.2% of 300,000 active. AID 540256; active means well fitted inhibition curve with a large enough effect; inconclusive means small, poorly fitted or top-dose-only effect, or effect the other way; inactive means flat fitted curve, though single readings scatter; tested in HEK293 cells; note: % is set by controls: 0 for no effect and ±100 for the full control effect; nearly all actives have a fitted effect of over 50% in size; luciferase read-out
StopGo reporter: lowers the luciferase signal of an FMDV 2A StopGo reporter; human cells with a luciferase reporter of 2A StopGo recoding; control for the full effect not named in the record; Potency, µM (series often up to 57.9 µM), without a hit: top-dose signal change, negative = less light; 1.2% of 410,000 active; active = well fitted falling curve with a large enough effect; inconclusive = small, poorly fitted or top-dose-only effect; inactive = no such curve, though single readings can be large or run the other way; tested in HEK293T cells; note: % is set by controls: 0 for no effect and ±100 for the full control effect; nearly all actives have a fitted effect of over 45% in size; luciferase light after 4 h
* = called active by the depositor; ? = inconclusive; · = not tested or not shown; & = joins results of further samples; [ ] = remark or other dose. Unless noted, calls come from the whole dose curve; as a rule, active means well fitted rising curve with a large enough effect; inconclusive means small, poorly fitted or top-dose-only effect; inactive means no such curve, though single readings can be large or run the other way. Potency is the fitted concentration of half-maximal effect.

SMILES	NS1 function inh	RE007 growth inh	SARS PLP yeast	Cruzain inh noDet	Cruzain inh Det	Marburg entry inh	Lassa entry inh	StopGo reporter
O=C(Cn1cccn1)N1CCCC(Nc2ccc(F)c(F)c2)C1 (stereo not given)	19%	16%	8%	·	·	?	10%	-15%
CCOC(=O)C(c1ccccc1)N1CCN(c2ccc(OC)cc2)CC1 (stereo not given)	4%	7%	-2%	7%	3.4%	1%	?	-12%
O=S(=O)(c1ccc(Br)cc1)N1CCCN(Cc2ccccc2F)CC1	-22%	-3%	12%	-2%	-1.5%	?	-15%&1%	-24%
COc1ccc(C(=O)Nc2cnc(NC(=O)c3cccs3)cc2C)cc1	-18%	3%	-2%	·	·	?	?	28%
O=C(N/N=C/c1cccc2ccccc12)c1cc2ccccc2o1	3%	-5%	-2%	·	·	·	·	-1%
COc1ccc(C(=O)Nc2nc(-c3ccc(S(=O)(=O)N4CCOCC4)cc3)cs2)cc1	-7%	1%	6%	-20%	0.1%	?	?	7.9µM*
Cc1cc(C(=O)N2CCN(c3ccc([N+](=O)[O-])cc3)CC2)co1	10%	-16%	0%	·	·	·	·	-23%
O=C(Nc1nccs1)C1(S(=O)(=O)c2ccc(Cl)cc2)CC1	5%	0%	5%	-6%	0.9%	-3%	2%	-9%
Cc1[nH]n(C(N)=S)c(=O)c1N=Nc1cc(C(F)(F)F)ccc1Cl	-3%	0%	0%	·	·	?	?	-22%
O=C(NCc1ccc(C(=O)O)cc1)OCc1ccccc1	0%	6%	0%	·	·	-2%[46.1 µM]	-23%	4%
Cc1nonc1-c1ccc2c(c1)OCO2	4%	-8%	-2%	·	·	·	·	18%
CN(C)C(=O)c1ccc(-c2cc(C(F)(F)F)n(C)n2)s1	-5%	5%	-1%	·	·	-15%	-3%	4%
Cc1ccc(C2(c3ccc(C)cc3)NC(=O)N(CC(N)=O)C2=O)cc1	1%	1%	4%	·	·	?	5%	-20%
CC(C)c1cc(-c2nc(-c3ccccc3)no2)n[nH]1	·	·	·	2%	-4.3%	·	18%[46.1 µM]	-29%
CCOC(=O)c1c(C)n(CC)c2ccc(OC(=O)c3ccc([N+](=O)[O-])cc3)cc12	-9%	6%	1%	-21%	-3.8%	10%	-1%	-7%
COc1ccc(/C=C/C(=O)NC(=S)Nc2ccccc2C(=O)NC2CCCCC2)cc1	1%	-11%	-1%	?	1.8%	-27%	?	·
CCOC(=O)Cc1csc(NC(=O)c2cnc3sc(C)cn3c2=O)n1	-3%	20%	-5%	·	·	?	?	-12%
Cn1c(=O)c2c(nc(N3CCCCC3)n2CC(O)COc2ccccc2)n(C)c1=O (stereo not given)	-2%	8%	9%	·	·	·	·	?
O=C(Nc1ccccc1)C1CC(=O)N(Cc2ccccc2)C1 (stereo not given)	0%	-11%	1%	·	·	17%[46.1 µM]	-12%[46.1 µM]	-9%
CC(=O)OCCCNc1cc(Sc2nc3ccccc3s2)c2nonc2c1[N+](=O)[O-]	-6%	-4%	-24%	1%	-7.4%	20%	4%	?
CC(C)c1ccc(C(O)c2nc3ccccc3n2C)cc1 (stereo not given)	-6%	2%	-3%	·	·	·	·	7%
COc1cc(NC(=O)CN(c2ccc(C)cc2)S(=O)(=O)c2c(C)n[nH]c2C)cc(OC)c1	-3%	8%	-1%	?	-0.4%	0%	-7%	-21%
CC(C)=CCC/C(C)=C/COc1c2occc2cc2ccc(=O)oc12	·	9%	4%	10%	-6.3%	·	·	-16%
O=C(COC(=O)c1ccc(C(F)(F)F)cc1)Nc1cccc(S(=O)(=O)NC2=NCCCCC2)c1	·	-11%	2%	·	·	?	-1%	-2%
CC1Cc2ccccc2N1S(=O)(=O)c1cccc(C(=O)OCC(=O)NC2CCS(=O)(=O)C2)c1 (stereo not given)	-9%	-16%	6%	?	-2.7%	-1%&-1%	?	-1%
Remaining list, next part:
SMILES	NS1 function inh	RE007 growth inh	SARS PLP yeast	Cruzain inh noDet	Cruzain inh Det	Marburg entry inh	Lassa entry inh	StopGo reporter
c1cnc2c(SCc3ccc(-c4nnco4)cc3)cccc2c1	-80%	3%	4%	-4%	-2.7%	?	7%	-24%
COc1ccccc1NC(=O)Cn1c(=O)n(-c2ccccc2)c(=O)c2oc3ccccc3c21	2%	8%	3%	-14%	2.2%	23%	1%	-28%
CCCCOC(=O)c1ccc(NC(=O)/C(C#N)=C/c2ccc(C)o2)cc1	·	·	·	2%	-1.1%	·	-7%[46.1 µM]	7%
CC(=O)Nc1ccc(Oc2nc(-c3ccccn3)nc3ccccc23)cc1	-4%	-27%	-2%	·	·	?	?	?
CCn1c(CN2CCN(C)CC2)nc2cc(NC(=O)c3cc(OC)c(OC)c(OC)c3)ccc21	·	·	·	-4%	-3.0%	-11%[46.1 µM]	-6%[46.1 µM]	-13%
O=C1Nc2cc(C(=O)NCCCN3CCOCC3)ccc2S/C1=C/c1ccccc1F	18%	20%	-2%	·	·	·	·	?
CCOC(=O)Cn1nc(C)c(-c2ccccc2)c1N	-9%	-23%	-4%	8%	-0.1%	0%	6%	22%
COc1cc(C2C(C(=O)Nc3ccccc3C)=C(C)Nc3nc(SCc4cc(C)ccc4C)nn32)ccc1O (stereo not given)	·	·	·	-5%	2.9%	·	-5%[46.1 µM]	-22%
Cc1cc(C)c(NC(=O)c2ccccc2C(=O)c2ccccc2)c(C)c1	·	53%	0%	·	·	-27%[46.1 µM]	?	-5%
CC(=O)OC1COC(N2CCc3cc([N+](=O)[O-])ccc32)C(OC(C)=O)C1OC(C)=O (stereo not given)	-6%	-6%	1%	-12%	-0.7%	16%	4%	-10%
O=C(c1scc2c1CCCC2)N1CCOCC1	1%	9%	3%	-5%	9.3%	17%	-1%	2%
Nc1ccccc1N=c1ssnc1Cl	·	-3%	0%	·	·	28%[46.1 µM]	11%[46.1 µM]	21%
Cc1ccc(CCNC(=O)C2CCCN(Cc3nc(-c4cccc(Cl)c4)oc3C)C2)cc1 (stereo not given)	·	·	·	-6%	1.0%	-12%[46.1 µM]	?	?
COc1ccc([N+](=O)[O-])cc1NC(=O)CCN1CCN(C)CC1	·	-3%	4%	·	·	-2%[46.1 µM]	-1%	17%
O=C(Cc1cccs1)Nc1ccc(N2CCOCC2)cc1	7%	-4%	-1%	-2%	-4.4%	6%	-20%	68%[activator]
CCOC(=O)c1cc(S(=O)(=O)NCc2ccc(OC)cc2)[nH]n1	·	·	·	-8%	-0.4%	·	5%[46.1 µM]	9%
COc1ccc(S(N)(=O)=O)cc1C(=O)NNC(=O)CN(C)S(=O)(=O)c1ccc(Cl)cc1	·	2%	1%	·	·	?	?	-8%
COc1ccc(NC(=S)N/N=C/c2cccn2Cc2ccc(F)cc2)cc1	·	11%	2%	·	·	?	-13%[46.1 µM]	-21%
CN(C)S(=O)(=O)c1cccc(NC(=O)COc2nc3ccccc3nc2N2CCOCC2)c1	-12%	14%	-12%	22%	-8.2%	?	-16%	4%
CC1CN(c2ccc(NS(=O)(=O)c3ccccc3)cc2C(=O)O)CC(C)O1 (stereo not given)	2%	3%	1%	·	·	8%[46.1 µM]	20%[46.1 µM]	-19%
COc1ccc2nc3c(C)n(C)ccc-3c2c1	·	-20%	·	·	·	12%	14%	-15%
Cc1ccc(NC(=O)c2ccco2)c(NC(=O)COc2ccccc2)c1	-3%	46%	3%	·	·	14%[46.1 µM]	0%	-4%
COc1cc(C=O)ccc1OCC(=O)Nc1ccc2c(c1)OCO2	-3%	3%	5%	·	·	·	·	4%
Cc1ccc(CN(C(=O)COc2cccc(C)c2C)C2CCS(=O)(=O)C2)o1 (stereo not given)	16%	-14%	4%	·	·	-11%	-9%	-14%
CCOC(=O)c1cnc(C(F)(F)F)nc1Oc1ccccc1	6%	3%	4%	·	·	-15%	?	-14%

Brought forward from above: 2 compounds, followed by the next part.
SMILES	NS1 function inh	RE007 growth inh	SARS PLP yeast	Cruzain inh noDet	Cruzain inh Det	Marburg entry inh	Lassa entry inh	StopGo reporter
Cc1ccc(CN(C(=O)COc2cccc(C)c2C)C2CCS(=O)(=O)C2)o1 (stereo not given)	16%	-14%	4%	·	·	-11%	-9%	-14%
CCOC(=O)c1cnc(C(F)(F)F)nc1Oc1ccccc1	6%	3%	4%	·	·	-15%	?	-14%
N#CC(C#N)=CN=c1ccn(Cc2ccc(Cl)cc2Cl)cc1	2%	-22%	-1%	·	·	·	·	?
COC(=O)c1ccc(COc2ccc(NC(C)=O)cc2)o1	-1%	34%	0%	·	·	?	6%	7%
Oc1ccc(N=Nc2cccc(Cl)c2)cc1C=Nc1ccc(N2CCOCC2)cc1	3%	11%	-10%	-3%	-8.4%	?	18%	35%[activator]
COc1ccccc1NS(=O)(=O)c1c(C)nc2sccn2c1=O	14%	0%	5%	·	·	·	·	1%
COc1ccccc1CNC(=O)COc1ccccc1OC	-4%	2%	-3%	2%	2.7%	14%	26%	-6%
O=C(c1ccc(CSc2nc3ccncc3n2Cc2ccccc2F)cc1)N1CCCCCC1	·	·	·	-5%	-15%	25%[46.1 µM]	·	-10%
COCCCNC(=O)C1CCN(S(=O)(=O)c2ccc3nc4c(c(C(=O)O)c3c2)CCCCC4)CC1	3%	-4%	2%	·	·	·	·	0%
CC1CCN(C(=O)COc2ccc(Nc3ccccc3)cc2)CC1	·	-15%	-7%	·	·	·	-5%	-12%
CCOC(=O)c1cccc(NC(=O)CCOc2ccccc2)c1	-4%	-2%	0%	·	·	?	-25%	-5%
Cc1oc2c(c1C(=O)c1ccc(Cl)cc1)C(=O)C(=O)c1ccccc1-2	-27%	-15%	-20%	?	-5.0%	-22%	-27%	?
Cc1oc2c(CN3CCCC3)c(O)ccc2c(=O)c1-c1ccccc1	-4%	-3%	1%	-9%	-11%	19%	-9%	-7%
CC12CCC(C(=O)N3CCN(c4ccccc4)CC3)(CC1=O)C2(C)C (stereo not given)	-36%	5%	-5%	3%	-0.5%	-8%	-1%	0%
Cc1ccc(CN2CC(C(=O)Nc3cc(S(C)(=O)=O)ccc3Cl)CC2=O)cc1 (stereo not given)	-8%	7%	5%	-2%	1.1%	12%	-3%	1%
CCCn1c2c(c(=N)c3c1CCC3)CCCC2	-5%	?	-16%	5%	-1.5%	?	?	?

Screening results (PubChem BioAssay)
